PrP 5UTR inh: suppresses PrP 5' UTR mRNA reporter expression; cell-based PrP 5' UTR mRNA reporter, plate reader; inhibition, % (concentration not given with the values); 340,000 tested, 0.35% active; AID 488862;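 active = every replicate at 50% or more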;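 also: 0 = median of the neutral control wells; tested in H4 reporter cells; numbers are from one replicate; inactives centre near -14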
Mtb hypoxia inh: reduces hypoxia-regulated biosensor signal in M. tuberculosis | fluorescence inhibition, % (test concentration not listed) | 300,000 tested, 0.1% active | AID 1159583 | M. tuberculosis hypoxia-regulated fluorescent reporter, fluorescence;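 active = 35 to 45% if threefold the growth effect, above 45% if 1.5-fold the growth effect; inactive = the rest, general growth blockers included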;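 also: wells of about 50 µL received 100 nL stock; 0% = vehicle wells and 100% = reference inhibitor wells; whole bacteria with a GFP reporter of the hypoxia response; strong numbers were not always called active; many hits fall short of the cut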
Sa ugtP lethal: growth inhibition of S. aureus ugtP deletion strain; 330,000 tested, 0.54% active; AID 1259309; growth inhibition, % (concentration not given with the values); S. aureus RN4220 ugtP deletion, OD600 growth, 16 h; some inactives read as strong as hits;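 active = z-score under -3 and OD600 up to 0.15 on both plates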;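 also: plate controls were untreated wells for no effect and antibiotic for full effect; wells of about 80 µL received 100 nL stock; the first replicate is given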
BJeLR viability: BJeLR cell viability loss; BJeLR (HRASV12) viability, CellTiter-Glo ATP luminescence, 48 h; reference of the scale not given here; inhibition, % (concentration not given with the values); 300,000 tested, 0.17% active;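 active = replicate mean above 50%; inconclusive = above 50% but judged a plate artefact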;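 also: 50 nL library stock added to about 25 µL; numbers are from one replicate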
RN4220 kill: S. aureus RN4220 growth inhibition; 330,000 tested, 0.33% active; OD600, 16 h; inhibition, % (concentration not given with the values);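 active = z-score of -3 or lower and OD600 up to 0.18 on both plates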;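 also: plate controls were untreated cells for no effect and reference antibiotic for full effect; stock transfer was 100 nL into about 80 µL; one replicate is shown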
Bead autofluor: flagged as autofluorescent in microsphere protease counterscreen; compound autofluorescence counterscreen, microsphere flow cytometry; hits give high values; 360,000 tested, 3.1% active; fluorescence intensity (concentration not given with the values);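 active = at least 3 SD above the mean of all compounds, about 16000 in these data; inconclusive = too few beads counted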;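 also: 100 nL of 1 mM stock went into each well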
Mtb hypoxia inh growth: second read-out of Mtb hypoxia inh, no call of its own (marks repeat the call); growth inhibition, %; measured here: M. tuberculosis growth (absorbance);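 0% = vehicle and 100% = reference antibiotic; read after six days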
* hit, by the source's call; ? = inconclusive; nt = not tested or not shown; & = joins results of further samples.

SMILES	PrP 5UTR inh	Mtb hypoxia inh	Mtb hypoxia inh growth	Sa ugtP lethal	BJeLR viability	RN4220 kill	Bead autofluor
Cc1ccc(C(=O)NC2CCN(CCCC(=O)c3ccc(F)cc3)CC2)cc1	-56	0	2	8	-11	0.9	4501
COc1ccc(S(=O)(=O)N2CCCOC2CNC(=O)C(=O)NC2CCCC2)cc1 (configuration not stated)	-3	-3	9	-1	-4	-1.6	4431
CCc1nnc(NC(=O)CSc2nnc(-c3ccccc3O)o2)s1	-24	nt	nt	nt	8	nt	3435
Cc1cc(C)nc(Nc2nc3ccccc3s2)n1	-108	9	2	8	-6	3.0	3203
Cc1ccc(Nc2nc(N)c([N+](=O)[O-])c(N3CCOCC3)n2)cc1	-14	3	0	-6	6	20	2336
CN(Cc1ccccc1)C(=O)c1ccc(NC(=O)Cc2cccc(NC(=O)C3CCN(C(=O)C4CC4)CC3)c2)cc1	-12	1	0	7	nt	2.1	2967
O=C(Nc1ccnn1C1CCN(C(=O)Cc2ccccc2F)CC1)C1CC1	-19	5	-2	7	-1	4.5	4138
O=C(O)c1c(-c2ccccc2)c(-c2ccccc2)nc2ccccc12	-15	2	6	10	2	2.5	4752
CCN1CCN(C(=S)Nc2cc(S(=O)(=O)N(CC)CC)ccc2C)CC1	-52	7	2	13	7	5.6	4014
CC(C)(C)C1CCc2c(sc3ncn(N)c(=N)c23)C1 (configuration not stated)	nt	12	4	-1	7	-1.2	3340
COCc1cc(C)nc2sc(C(=O)NC3CCCCC3)c(N)c12	-6	nt	nt	-13	1	4.3	2336
CCCCC1CCC(/C(N)=N/O)CC1 (configuration not stated)	-9	16	12	-2	1	0.8	7605
CCCCCCNC(=O)C(C(=O)OCC)C1CCCCC1 (configuration not stated)	-18	nt	nt	4	0	0.7	3718
CC(C)CC(NC(N)=O)C(=O)Nc1ccc2c(c1)OCO2 (configuration not stated)	-23	2	0	-1	nt	1.4	4425
c1ccc(-c2nc(CSc3nnc(-c4cccs4)o3)cs2)cc1	11	6	2	9	-3	5.2	4618
O=C(NCc1ccc(OC(F)(F)F)cc1)C1CC(c2ccccc2C(F)(F)F)=NO1 (configuration not stated)	-23	4	8	7	-2	1.4	3785
Cc1ccc(-n2c(COc3c(C)cccc3C)nnc2SCC(=O)Nc2nccs2)cc1	-1	14	7	-6	-4	8.3	7812
COC(=O)c1[nH]c2cccc(Cl)c2c1NC(=O)CN(C)C1CCCCC1	-1	nt	nt	-13	nt	1.4	4637
Cc1ccccc1S(=O)(=O)c1c(C)cc(C)n(CC(C)C)c1=O	-3	nt	nt	11	1	17	2410
O=C(Nn1nnnc1Nc1ccccc1)C12CC3CC(CC(C3)C1)C2	-21	nt	nt	-1	-2	2.9	4971
CC(C)C1C2=C(CC(C)(C)CC2=O)ON1c1ccccc1 (configuration not stated)	-4	6	6	-5	1	2.9	12420
CCCCCn1c(CN2CCCCC2C)nc2c1c(=O)n(C)c(=O)n2C (configuration not stated)	-22	5	5	2	-4	-0.1	3719
O=C(c1ccc(Br)o1)N1CCN(c2ccccn2)CC1	-16	5	12	1	3	1.9	nt
Cn1c(=O)c2c(nc(N3CCCC3)n2CC(O)CO)n(C)c1=O (configuration not stated)	-56	1	14	-3	-12	2.0	8052
Cc1cc(C)n(CC(C)(O)c2ccccc2)n1 (configuration not stated)	-10	1	-2	3	4	7.1	3926

Results in BJeLR viability and Bead autofluor, for 4 of the compounds above:
compound	BJeLR viability	Bead autofluor
c1ccc(-c2nc(CSc3nnc(-c4cccs4)o3)cs2)cc1	-3	4618
O=C(NCc1ccc(OC(F)(F)F)cc1)C1CC(c2ccccc2C(F)(F)F)=NO1 (configuration not stated)	-2	3785
Cc1ccc(-n2c(COc3c(C)cccc3C)nnc2SCC(=O)Nc2nccs2)cc1	-4	7812
COC(=O)c1[nH]c2cccc(Cl)c2c1NC(=O)CN(C)C1CCCCC1	nt	4637

Back to the main list, repeating the 3 entries before the break.
SMILES	PrP 5UTR inh	Mtb hypoxia inh	Mtb hypoxia inh growth	Sa ugtP lethal	BJeLR viability	RN4220 kill	Bead autofluor
O=C(c1ccc(Br)o1)N1CCN(c2ccccn2)CC1	-16	5	12	1	3	1.9	nt
Cn1c(=O)c2c(nc(N3CCCC3)n2CC(O)CO)n(C)c1=O (configuration not stated)	-56	1	14	-3	-12	2.0	8052
Cc1cc(C)n(CC(C)(O)c2ccccc2)n1 (configuration not stated)	-10	1	-2	3	4	7.1	3926
Cc1cc(/C=C2\C(=N)N3C(SCc4ccccc4)=NSC3=NC2=O)c(C)n1Cc1ccccc1	-31	-9	0	-6	-17	4.3	10918
N#CC(C#N)=Cc1cnc(N2CCN(c3ccccc3)CC2)s1	-24	2	0	-2	-7	2.3	4323
NS(=O)(=O)c1ccc(NC(=S)NC(=O)c2cccnc2)cc1	-27	6	5	23	3	5.3	3314
O=[N+]([O-])c1ccc(S(=O)(=O)NCC2CC3CCC2C3)cc1 (configuration not stated)	-10	16	8	5	-4	20	3817
Cn1c(=O)c2nc(NCc3ccccc3)sc2n(C)c1=O	-21	14	13	-2	nt	1.0	4228
CC(=NNc1ccc([N+](=O)[O-])cc1)c1ccc(C)cc1C	nt	1	3	-12	nt	-14	nt
CCc1cc(=O)[nH]c(-n2[nH]c(-c3ccccc3)cc2=O)n1	-20	nt	nt	nt	-2	nt	4833
CCCCNC(=O)Nc1cc(C(=O)OC)ccc1C	-22	6	5	2	-9	0.7	2827
O=C(/C=C/c1cccs1)Nc1ccncc1	-24	-4	1	-4	5	2.8	1957
N#CCCn1c(SCC(=O)c2c[nH]c3ccccc23)nc2ccccc21	-18	nt	nt	-10	-4	-3.0	4326
COc1ccccc1N1CCN(C(=O)c2c(C)cc(=O)oc2C)CC1	-23	25	13	2	-1	-9.9	3156
CCOC(=O)c1cnc2nc(NCc3ccc(OC)c(OC)c3)[nH]n2c1=O	-6	nt	nt	3	2	0.1	2828
Oc1ccc(Cl)cc1C1=NCCNC(C(F)(F)C(F)F)=C1	-12	7	13	-8	-2	7.2	22480*
O=C(CCCCCN1C(=O)CCC1=O)NCc1ccccc1	-15	nt	nt	0	1	6.8	3040
CC1=C(c2ccccc2)C(O)(c2ccccc2)C(C)C1=O (configuration not stated)	-13	16	9	8	nt	3.0	2999
CC(C)CN1C(=O)C(=O)N(CC(=O)NC(C)CCc2ccccc2)C1=O (configuration not stated)	-18	9	10	9	nt	-0.3	6887
O=C(C[n+]1cc2ccccc2c2ccccc21)c1ccccc1	-23	nt	nt	-14	15	-22	3491
O=C(CCS(=O)(=O)c1ccc2c(c1)NC(=O)CS2)NCCc1ccccc1	-2	-5	-3	11	1	4.7	4400
C/C(=N/N1CCN(Cc2cccc3ccccc23)CC1)c1cccnc1	-6	nt	nt	nt	-9	nt	2187
O=C(NCCn1cccn1)C1CCC(=O)N(CCc2ccccc2)C1 (configuration not stated)	-13	2	-3	-2	-9	2.1	5140
CCCCNc1c([N+](=O)[O-])cc(C)cc1[N+](=O)[O-]	-28	7	8	3	4	7.8	10403
O=C(COC(=O)c1cc(=O)[nH]c(=O)[nH]1)Nc1cccc(S(=O)(=O)N2CCOCC2)c1	-5	14	12	3	5	8.4	3895
Cc1cccc(NC(=S)N2CCC(NC(=O)C3CCCCC3)CC2)c1	-9	-17	1	2	-1	0.9	5607
CCOc1ccc(S(=O)(=O)NCc2ccncc2)cc1NC(=O)c1ccccc1	5	9	2	5	-3	6.4	?
C=C(C)CN=CC1(C)CCC(C)=CO1 (configuration not stated)	6	4	3	0	nt	2.7	3268

Filtered by structure: those above with a Cl atom.
SMILES	PrP 5UTR inh	Mtb hypoxia inh	Mtb hypoxia inh growth	Sa ugtP lethal	BJeLR viability	RN4220 kill	Bead autofluor
COC(=O)c1[nH]c2cccc(Cl)c2c1NC(=O)CN(C)C1CCCCC1	-1	nt	nt	-13	nt	1.4	4637
Oc1ccc(Cl)cc1C1=NCCNC(C(F)(F)C(F)F)=C1	-12	7	13	-8	-2	7.2	22480*

Rewritten as a markdown table: 4 of the compounds above
| SMILES | PrP 5UTR inh | Mtb hypoxia inh | Mtb hypoxia inh growth | Sa ugtP lethal | BJeLR viability | RN4220 kill | Bead autofluor |
| --- | --- | --- | --- | --- | --- | --- | --- |
| O=C(C[n+]1cc2ccccc2c2ccccc21)c1ccccc1 | -23 | nt | nt | -14 | 15 | -22 | 3491 |
| O=C(CCS(=O)(=O)c1ccc2c(c1)NC(=O)CS2)NCCc1ccccc1 | -2 | -5 | -3 | 11 | 1 | 4.7 | 4400 |
| C/C(=N/N1CCN(Cc2cccc3ccccc23)CC1)c1cccnc1 | -6 | nt | nt | nt | -9 | nt | 2187 |
| O=C(NCCn1cccn1)C1CCC(=O)N(CCc2ccccc2)C1 (configuration not stated) | -13 | 2 | -3 | -2 | -9 | 2.1 | 5140 |

(listing goes on)
SMILES	PrP 5UTR inh	Mtb hypoxia inh	Mtb hypoxia inh growth	Sa ugtP lethal	BJeLR viability	RN4220 kill	Bead autofluor
CSc1cccc(NC(=S)N(Cc2ccc(C)cc2)Cc2ccccn2)c1	-24	9	2	15	-1	5.5	3315
CCCOc1ccc(CNC(=O)Cn2c(=O)oc3ccccc32)cc1	-1	-3	4	3	13	2.0	4174
Cc1onc(-c2ccccc2Cl)c1C(=O)NCCCc1ccccc1	-19	7	9	-3	-5	-3.6	5468
Cc1cccc(NC(=O)c2oc(=O)c3ccccc3c2-c2ccccc2)c1C	-11	-2	-2	-1	1	6.4	2813
CC(=O)c1cccc(Nc2nc(=O)c3cccnc3s2)c1	9	4	-4	-1	-1	1.1	7950
O=C(CN1CCOCC1)NN=Cc1c(O)ccc2ccccc12	nt	9	5	10	nt	8.4	nt
C=CCN=c1scc(-c2ccccc2)n1/N=C/c1ccccn1	-52&-19	9	14	-6	28	0.6	4278&2605
COc1ccccc1C(=O)Nc1ccc(CN2CCCCC2)cc1	-7	nt	nt	4	2	2.7	4216
COc1cc(NCc2ccccc2)c2ncn(C(C)C)c2c1	-14	6	8	4	nt	4.9	3579
O=C(Nc1ccccc1N1CCN(C(=O)c2ccc(Cl)cc2)CC1)c1ccc(Br)cc1	-30	-24	8	-33	3	-10	5337
COCCNC(=O)c1c(N)n(N=Cc2ccc(F)cc2)c2nc3ccccc3nc12	nt	-2	1	-9	nt	3.8	nt
CC(C)N(Cc1ccccc1)C(=O)CSc1nccn1C	-37	12	5	1	1	1.7	4340
CC1CC(OC(=O)c2ccccc2C(=O)c2ccc(Cl)cc2)C(=O)O1 (configuration not stated)	-17	17	7	4	nt	2.4	3737
CC(C)(C)NC(=O)CCn1nc(-c2ccc(Cl)cc2)c2ccccc2c1=O	-8	14	7	4	0	2.5	3917
Cc1ccnc2nc(C(=O)OCC(=O)NC(=O)NCc3ccco3)nn12	-10	10	-2	9	-2	1.3	4276
COc1cc2c(cc1NC(=O)C(C)N1CCN(S(=O)(=O)c3ccc(C)c(C)c3)CC1)oc1ccccc12 (configuration not stated)	5	1	2	7	-5	3.3	16646*
COc1ccc2c3c([nH]c2c1)C(C)N(C(C)=O)CC3 (configuration not stated)	-16	-9	-16	3	-1	2.3	3097
O=C(NC1=NCCS1)c1cccc(OC(F)F)c1	-67	5	0	6	-4	4.9	4231
COc1ccc(Cl)cc1-c1nc(SCC(=O)N(C)C2CCS(=O)(=O)C2)n[nH]1 (configuration not stated)	-18	13	10	0	nt	2.9	4273
N#Cc1c(-c2ccc3c(c2)OCO3)cc[nH]c1=O	13	9	8	-7	6	0.9	3445
COC(=O)C1=C(O)C(C(=O)OC)C(c2ccc(C)cc2)C(C#N)(C#N)C1c1ccc(C)cc1 (configuration not stated)	-37	-1	4	5	-4	17	22296*
CON=CNC(=O)C1=NOC(CNc2ncc(C(F)(F)F)cc2Cl)C1 (configuration not stated)	nt	3	6	-10	nt	-1.6	nt
Cc1nn(-c2ccccc2)cc1C=NNC(=O)c1cccs1	nt	3	4	1	nt	0.2	nt
CCCSc1nsc(NC(=O)Nc2ccc(F)cc2F)n1	-46	0	7	-34	7	33	4057
C/C(=C\C(=O)OCCCCCCCCC(=O)O)C[C@@H]1OC[C@H](C[C@@H]2O[C@H]2[C@@H](C)[C@H](C)O)[C@@H](O)[C@H]1O	-12	nt	nt	nt	-16	nt	6423
Nc1nonc1-n1nnc(C(=O)N/N=C/c2cccs2)c1CSc1ccccc1	-30	nt	nt	nt	-2	nt	4916

Screens from PubChem BioAssay.

Compounds were not picked by outcome; any-hit rate near 4.1%.
